S aureus helic – blocks Staphylococcus aureus DNA helicase; inhibition, %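 (tested at about 80 µM)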; 120,000 compounds, 0.05% hits; purified S. aureus helicase, fluorescence unwinding assay; about half of the hits fall short of the stated cut; AID 485395;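 active means both duplicates at 50% or more, or one of them with a favoured structure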;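 further: 0% = mean of negative control wells and 100% = mean of positive control wells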
MgrA-DNA mod – modulators of Staphylococcus aureus MgrA DNA binding. AID 602314. 84,000 compounds, 0.13% hits. inhibition, %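 (about 10 µg/mL by stock and volumes)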. fluorescence polarization;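 active means above 50% in either of two replicates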;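 further: 0% = protein plus DNA without compound and 100% = DNA alone without protein; higher means less MgrA bound to DNA so lower polarization; one replicate is shown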
Starred values were filed as active, the others as inactive; . = not tested or not shown.

MgrA-DNA mod,S aureus helic,Compound
.,13,OCc1nc2ccccc2s1
-0.2,6,CC(C)CCNC(=O)c1ccc(CS(=O)(=O)Cc2ccc(F)cc2)o1
.,18,CC1(c2ccc(Br)cc2)NN=Cc2nc3ccccc3c(=O)n21 (configuration not stated)
-5.7,.,CCOC(=O)c1cc2cc(OCc3ccccc3)ccc2n1C(=O)c1ccccc1C(=O)O
1.0,6,Cc1nc(SCC#N)c2c3c(sc2n1)CCCC3
2.1,1,COC(=O)Cn1c(C(O)c2ccccc2)nc2ccccc21 (configuration not stated)
-0.7,4,N#Cc1ccc(Cl)cc1N=Cc1ccco1
-1.7,6,O=c1c2sccc2nc(SCc2ccccc2)n1CCc1ccccc1
-0.8,.,OC(c1ccccc1)c1ccncc1 (configuration not stated)
-1.3,1,CSc1ccc(-c2cccs2)nn1
.,15,CC1CC(=O)Nc2ccccc2S1 (configuration not stated)
0.0,.,C=CCNC(=O)CSc1nccc(-c2sc3scc(C)c3c2C)n1

Other structures follow:
MgrA-DNA mod,S aureus helic,Compound
-2.8,.,O=C(CN1C(=O)c2ccccc2C1=O)c1cccc(C(F)(F)F)c1
-1.9,8,CCOC(=O)c1c(C)n(C)c2ccc(OC(=O)OC)cc12
0.2,.,CCc1ccnc(NS(=O)(=O)c2ccccc2)c1
-0.9,.,Cc1cc(C)c2c(n1)sc1c(=O)n(/N=C/c3ccccc3)cnc12
2.7,.,COC(OC)c1nc(SCC(=O)Nc2ccc(C(C)C)cc2)ncc1C(=O)O
2.3,10,CCc1ccc2c(c1)=C(c1[nH]c(=S)[nH]c1O)C(=O)N=2
0.8,9,Cc1cc(C)nc(/N=C(/N)NO)n1
.,-5,O=C(COc1ccccc1)OCC(=O)N1CCCc2ccccc21
0.1,.,C=CCn1c(Sc2ncnc3c2sc(=S)n3CC=C)nnc1-c1ccccc1
-0.8,.,CCOC(=O)Cn1c(=O)c(-c2ccccc2NCc2ccccc2)nc2cc3ccccc3cc21
0.2,4,O=C(Nc1ccn(Cc2ccccc2F)n1)Nc1ccc(F)cc1F
.,4,O=C(CCOc1ccccc1F)N1CCc2ccccc21

Continued.
MgrA-DNA mod,S aureus helic,Compound
.,-14,COCCn1c(C)cc(C(=O)COC(=O)c2cc(OC)c(OC)cc2OC)c1C
-0.1,15,O=S(=O)(c1ccc(OC(F)(F)F)cc1)N1CCCC(c2ccccc2)C1 (configuration not stated)
4.3,2,O=C(/C=C/c1ccccc1)NC(=S)Nc1ccc(-c2nc3ccccc3o2)c(O)c1
0.9,.,O=C(c1ccc2c(c1)OCCCO2)N1CCCCC1
0.9,.,CC(=O)N(CC(C)C(=O)O)c1c(I)cc(I)c(N)c1I (configuration not stated)
-0.1,24,C=CCC1C=C(C)CC(CC=C)N1CC(O)C(F)(F)C(F)(F)C(F)(F)F (configuration not stated)
.,11,O=C(Cc1ccccc1)N/N=C/c1ccccc1C(=O)O
.,-18,CS(=O)(=O)c1ccc(C(=O)OCc2ccccc2C#N)cc1
.,19,COc1cc(C2C(C(=O)Nc3ccccn3)=C(C)NC3=C2C(=O)CCC3)cc(OC)c1OC (configuration not stated)
0.4,-1,CC1(C)CC2CC(C)(CN2C(=O)c2cc3ncc(Br)cn3n2)C1 (configuration not stated)
1.4,-1,C/C(=N\NC(=O)Cc1ccccc1)c1cccnc1
-1.4,6,CC(=O)OCC1OC(n2ccc(=O)[nH]c2=O)C(OC(C)=O)C1OC(C)=O (configuration not stated)

Entries of single compounds as entered above. Values in the order: MgrA-DNA mod	S aureus helic
C=CCC1C=C(C)CC(CC=C)N1CC(O)C(F)(F)C(F)(F)C(F)(F)F (configuration not stated) is listed as -0.1	24
CCc1ccc2c(c1)=C(c1[nH]c(=S)[nH]c1O)C(=O)N=2 is listed as 2.3	10

The listing continues.
MgrA-DNA mod,S aureus helic,Compound
-2.2,1,Cc1cccc2c(=O)c(C(=O)NCc3cccs3)c[nH]c12
-3.1,.,COc1ccc(C(=O)NCc2csc(-c3cccs3)n2)cc1OC
.,-1,CC1(C)NN=C(N)SC1=O
-1.3,.,O=C(CCN1C(=O)/C(=C/c2ccc(Cl)cc2Cl)SC1=S)Nc1cc([N+](=O)[O-])ccc1O
-0.7,.,Cc1onc(C(=O)N(C)C)c1-c1ccnc(=S)[nH]1
.,-22,CCOc1ccccc1N1C(=O)/C(=C\c2cccs2)SC1=S
.,12,Cc1cccc(NS(=O)(=O)c2ccc3c(c2)OCCO3)c1
.,7,Cc1cccc(-c2nc(CS(=O)CC(=O)NCC3CCCO3)c(C)o2)c1 (configuration not stated)
.,-4,CC(OC(=O)C1CCN(c2ccc(C(F)(F)F)cn2)CC1)C(=O)Nc1ccccc1F (configuration not stated)
-3.4,.,FC(F)(F)c1cc(C#CCN2CCCCC2)cc(C(F)(F)F)c1
.,4,Cn1c(C(=O)O)c(CC(=O)NCC2COc3ccccc3O2)c2ccccc21 (configuration not stated)
.,23,CNC(=O)c1cncc(C(=O)NC)c1

An excerpt from above in order of their number in S aureus helic, highest first.
smiles	MgrA-DNA mod	S aureus helic
CNC(=O)c1cncc(C(=O)NC)c1	.	23
Cc1cccc(-c2nc(CS(=O)CC(=O)NCC3CCCO3)c(C)o2)c1 (configuration not stated)	.	7
CC1(C)NN=C(N)SC1=O	.	-1

Further compounds follow.
MgrA-DNA mod,S aureus helic,Compound
-2.0,.,O=C(OCCSc1ccc(Cl)cn1)c1cccc(Cl)c1
0.3,-9,Cc1c(Cl)cccc1NC(=O)c1ccco1
.,-4,CCSc1nnc(SCc2nc(N)nc(Nc3ccccc3C)n2)s1
.,16,Cc1ccc2oc(C(=O)NCc3ccncc3)cc(=O)c2c1
19,13,O=c1c(O)coc(CO)c1C(Nc1ccccn1)c1ccccc1O (configuration not stated)
0.1,-11,CCC(C(=O)O)n1cnc2ccccc2c1=O (configuration not stated)
.,-3,Cc1ccc(NC(=O)c2noc3c2CCC3)cc1
.,16,COc1ccc(OCCOC(=O)/C(=C/c2cccs2)c2cccs2)cc1
.,-13,CC(C)CNC(C)C(=O)Nc1ccc(S(N)(=O)=O)cc1 (configuration not stated)
-1.6,7,CCc1ccc(Oc2c(CC(=O)O)oc3cc(O)c(CC)cc3c2=O)cc1
.,-12,CN(C)C(CNCc1ccc(-n2cnc3ccccc32)cc1)c1ccco1 (configuration not stated)
-1.5,.,Cc1csc(NC(=O)C(F)(F)F)c1-c1nc2ccccc2s1

4 of the compounds above, with each value named:
SMILES: Cc1c(Cl)cccc1NC(=O)c1ccco1
  MgrA-DNA mod = 0.3	S aureus helic = -9
SMILES: CCSc1nnc(SCc2nc(N)nc(Nc3ccccc3C)n2)s1
  MgrA-DNA mod = .	S aureus helic = -4
SMILES: Cc1ccc2oc(C(=O)NCc3ccncc3)cc(=O)c2c1
  MgrA-DNA mod = .	S aureus helic = 16
SMILES: O=c1c(O)coc(CO)c1C(Nc1ccccn1)c1ccccc1O (configuration not stated)
  MgrA-DNA mod = 19	S aureus helic = 13

Next entries
MgrA-DNA mod,S aureus helic,Compound
.,7,Cc1ccc(CC2CC(=O)N(c3cc(C)on3)C2=O)cc1 (configuration not stated)
.,13,COc1ccc(CNC(=O)C2CCN(c3cc(C(=O)Nc4cccc(OC)c4)ccn3)CC2)cc1
-2.7,.,CC(C)(C)NS(=O)(=O)C1CCS(=O)(=O)C1 (configuration not stated)
-1.3,.,Cc1nc(C)c(S(=O)(=O)N2CCC(C(=O)c3ccccc3)CC2)s1
.,30,CC(=O)n1cc(/C=N/NC(=O)c2cccc(O)c2)c2ccccc21
.,-7,Cc1cc(NC(=O)CSc2nc3ccccc3c(=O)n2CCCN2CCC(C)CC2)n[nH]1
.,7,CSc1ccccc1NC(=O)C1CCCC1
0.6,11,COc1ccc(CCNc2nc3c(c(C(F)(F)F)n2)CC(C)CC3)cc1OC (configuration not stated)
1.2,-5,Oc1oc(-c2ccccc2)nc1C=Nc1cccnc1
.,1,CCOC(=O)c1c(C)[nH]c(C)c1C(=O)COC(=O)C1Cc2ccccc2CN1C(C)=O (configuration not stated)
.,9,COc1ccccc1-c1c(C)nn2c(N3CCc4ccccc43)cc(C)nc12
.,-14,O=C1OC(c2ccccc2)Cc2ccccc21 (configuration not stated)

Other entries follow.
MgrA-DNA mod,S aureus helic,Compound
0.6,.,CC(C)(C)c1ccc(Oc2ccc(NC(=O)c3ccccc3)cn2)cc1
1.9,14,N#Cc1c(SCC(N)=O)nsc1SCc1ccc(Cl)cc1
3.2,.,CC(=O)c1ccc2c(c1)Cc1cc(C(C)=O)ccc1-2
-0.8,.,CCOC(=O)c1c(C)nn(-c2ccc(NC(=O)c3cccs3)cc2)c1C
.,21,CCN(CC(=O)NCC12CC3CC(CC(C3)C1)C2)Cc1nc2ccccc2c(=O)[nH]1
.,6,N#CC1(NC(=O)CSc2ccccc2F)CCCCC1
-1.4,.,O=C(c1cc2ccccc2s1)N(Cc1ccccn1)Cc1ccccn1
.,-6,CN(C(=S)Nc1ccc(OC(F)F)cc1)C1CCCCC1
.,-5,Cc1sc2nc3c4ccccc4c(NCc4ccco4)nn3c(=O)c2c1C
.,-453,O=c1oc2c(CN3CCN(CCO)CC3)c(O)ccc2cc1-c1nc2ccccc2s1
-1.7,.,O=C(Oc1ccccc1)N1CCCC1
-1.2,1,CCCCNS(=O)(=O)c1ccc(N)cc1

The listing continues.
MgrA-DNA mod,S aureus helic,Compound
-0.8,13,O=C1Nc2ccccc2C(O)(C(=O)NCc2ccc3c(c2)OCO3)N1c1c(F)cccc1F (configuration not stated)
.,-122,CCNc1cc(N2CCN(c3ccccc3)CC2)c2noc3c2c1C(=O)c1ccccc1-3
0.1,12,CCCCc1nc(NCCO)c(C#N)c2c1CCCC2
2.2,5,O=C1Nc2ccccc2/C1=N\N1CCN(Cc2ccc(Cl)cc2)CC1
-1.7,.,O=C(Nc1csc2ccccc12)N1CCSCC1
.,-21,O=C(O)c1ccc(S(=O)(=O)N2CCCC2)cc1
.,1,CCN(CC(=O)Nc1ccccc1C(=O)c1ccccc1)CC(=O)NC1CCS(=O)(=O)C1 (configuration not stated)
1.8,.,Cc1ccc(-c2[nH]ncc2Sc2ccc(C(F)(F)F)cn2)cc1
-1.0,.,Nc1ccccc1-c1nc(-c2ccc(Cl)cc2)no1
.,4,COc1cccc(C2CC(c3cccs3)=NN2C(=O)CSC2=NN3CCCC(=O)N=C3S2)c1OC (configuration not stated)
3.5,2,Cc1[nH]c2ccccc2c1C1=CCN(S(=O)(=O)Cc2ccccc2)CC1
.,4,CC1CC(C)CN(S(=O)(=O)c2ccc(C(=O)NC(C)(C)C)cc2)C1 (configuration not stated)

Following part:
MgrA-DNA mod,S aureus helic,Compound
.,2,COC(=O)c1cnc(SCc2c(Cl)cccc2Cl)n1C
0.0,2,CN(CC(=O)Nc1nc2ccc(Cl)cc2s1)S(=O)(=O)c1ccc2[nH]c(=O)ccc2c1
.,0,CCn1c(N)c(-c2csc(Nc3ccc(F)c(Cl)c3)n2)c(=O)[nH]c1=O
-0.5,.,CC(C)(C)CC(C)(C)NC(=O)c1c(F)cccc1F
.,-15,Cc1cccc(-n2nc3c(c2NC(=O)c2c(F)cccc2Cl)CS(=O)(=O)C3)c1C
3.5,9,Fc1ccc(SCSc2ccccc2)cc1
-0.4,9,CCc1ccc(NC(=O)CSc2ncc(S(=O)(=O)c3ccc(C(C)C)cc3)c(N)n2)cc1
2.7,5,CCC1(C)Cc2ccccc2/C(=C/C(=O)N2CCCCC2)N1 (configuration not stated)
-6.5,1,CC(C)(C)C(N)Cn1ccnc1 (configuration not stated)
-1.9,2,O=C(NCCc1ccccc1)c1ccc(Cl)cc1
1.2,-18,O=C(OCC1CCCO1)c1ccccc1Br (configuration not stated)
.,-6,CC(C)c1ccc(C#N)cc1

(further entries)
MgrA-DNA mod,S aureus helic,Compound
30,-4,CCN1C(=O)S/C(=C/c2ccc(N3CCCC3)c(F)c2)C1=O
-1.2,2,COc1cc2nc(C3CCC3)n(NC(=O)C(OC(C)=O)c3ccccc3)c(=O)c2cc1OC (configuration not stated)
.,-7,CC1CCCC(C)N1C(=O)COC(=O)c1cc(C(F)(F)F)cc(C(F)(F)F)c1 (configuration not stated)
-1.7,.,COc1ccc(C2NC(=O)NC(C)=C2C(=O)OCc2ccccc2)cc1Br (configuration not stated)
.,7,CCc1nnsc1C(=O)Nc1sc2c(c1C(=O)NCC1CCCO1)CCCC2 (configuration not stated)
-1.9,-24,Brc1ccccc1OCC1CCCN2CCCCC12 (configuration not stated)
.,2,CN(C)c1ncn(Cc2c(Cl)cccc2Cl)c2ncnc1-2
.,-12,CCOC(=O)c1c(NC(=O)CC2NCCNC2=O)sc2c1CCCC2 (configuration not stated)
-2.6,.,O=C(Nc1ccc(Cl)cc1)OCCSc1nc2ccccc2s1
-3.0,-15,CS(=O)(=O)C1(S(C)(=O)=O)CCCCC1
-0.1,-10,O=C(CSc1ncccn1)N1CCN(c2ccccc2)CC1
.,-12,Cc1[nH]c(=S)sc1CC(=O)NC1CCCCC1C (configuration not stated)

Continued:
MgrA-DNA mod,S aureus helic,Compound
1.4,5,CC1CCN(c2nnc(NC(=O)c3cc(-c4ccc(Br)cc4)on3)s2)CC1
-0.9,5,CS(=O)(=O)N1CCCC(C(=O)N2CCCCC2)C1 (configuration not stated)
-0.9,5,c1ccc(-c2cc(CSc3nc4ccccc4[nH]3)on2)cc1
.,1,COc1cccc(-c2nn(C)c3sc(C(=O)N4CCOCC4)cc23)c1
.,13,O=C1c2ccccc2C(=O)N1Cc1ccc(C2Nc3ccccc3-c3cccn32)o1 (configuration not stated)

Structural class, the entries above containing a tert-butyl group.
MgrA-DNA mod,S aureus helic,Compound
-2.7,.,CC(C)(C)NS(=O)(=O)C1CCS(=O)(=O)C1 (configuration not stated)
0.6,.,CC(C)(C)c1ccc(Oc2ccc(NC(=O)c3ccccc3)cn2)cc1
.,4,CC1CC(C)CN(S(=O)(=O)c2ccc(C(=O)NC(C)(C)C)cc2)C1 (configuration not stated)
-0.5,.,CC(C)(C)CC(C)(C)NC(=O)c1c(F)cccc1F
-6.5,1,CC(C)(C)C(N)Cn1ccnc1 (configuration not stated)

The list is partial; count on the stated rates, not on these rows.
